High-throughput results (PubChem BioAssay)
Mtb H37Rv – Mycobacterium tuberculosis H37Rv growth inhibition, cell based, confirmatory dose response (AID 1949); 1.6% of 100,000 active; M. tuberculosis H37Rv growth inhibition; one-dose inhibition, % at 10 µg/mL; IC50 in µg/mL for titrated hits; most inactive calls were filed without a number and no value below 0 was filed;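 active = confirmed in a dose series; inconclusive = about 50% or more but not retested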;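 note: bacteria grown 7 days with compound before Alamar blue readout; 0% = untreated bacteria and 100% = reference antibiotic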
The depositor's hits bear a star; i = inactive; ? = inconclusive.

SMILES	Mtb H37Rv
Cc1cc(Cl)ccc1NC(=O)CN1CCN(CCN=CC2=C(O)CC(C)(C)CC2=O)CC1	i
COc1cc(NC(=S)NCCc2ccc(Cl)cc2)cc(OC)c1	30%
Cc1c(NC(=O)CSCc2c(Cl)cccc2Cl)c(=O)n(-c2ccccc2)n1C	i
CCC(CC)NC(=O)c1cccc(OC)c1OC	i
Cc1ccc(S(=O)(=O)Nc2ccc(Br)c(Cl)c2)cc1[N+](=O)[O-]	6%
Cc1nc(SCCS(=O)(=O)Cc2ccccc2)c(C#N)c(-c2ccccc2)c1C(=O)Nc1ccccc1	i
CC(=O)Nc1ccccc1NC(=O)C(F)(F)F	i
Nc1ccc(C(=O)Nc2ccccc2C(=O)O)cc1	i
COc1ccc(NC(=O)c2nc3nc(C)cc(C(F)F)n3n2)c(C)c1	i
COc1cc(C=O)ccc1OCc1ccc(I)cc1	7%
O=C(NCc1ccc(Cl)cc1Cl)Nc1cccc([N+](=O)[O-])c1	2%
Cc1nc(SCCOc2ccccc2)c(C#N)c(C)c1C	9%
COc1ccc(-c2c3c(=O)n(C)c(=O)n(C)c3cn2-c2cc(C)c(C)cc2N)cc1	i
Cc1ccccc1CSCCNC(=O)c1ccc(Br)cc1	15%
COc1ccc(CCNS(=O)(=O)c2ccc(OC)c(Cl)c2)cc1	2%
O=C(CCCOc1ccc(Cl)cc1Cl)Nc1nc2c(s1)CCCC2	i
COc1cc2c(cc1NC(=O)C(=O)NCCCN1CCOCC1)oc1ccccc12	i
N#CCCCN1C(=O)C(=O)c2ccccc21	i
CC(C)CCNC(=O)C(=O)NCc1cccnc1	i
Cc1cc(Cl)ccc1OCC(=O)N1CCN(c2ccc(Cl)cc2)CC1	i
Cc1ccc(C(=O)OCc2ccc(Cl)cc2)cc1NC(=O)C(C)C	i
CC12CCC(C(=O)N3CCCCC3)(OC1=O)C2(C)C (centres undefined)	i
COc1ccc(-c2noc(COc3ccccc3)n2)cc1OC	2%
CCOC(=O)c1ccc(COC(=O)CN2C(=O)c3ccccc3C2=O)c(Br)c1	i
O=C(Nc1c(C(=O)Nc2ccc(F)cc2)cnn1-c1ccccc1)c1ccco1	i
c1ccc2c(Nc3nncs3)c3ccccc3nc2c1	i
CCOC(=O)c1c(-c2ccccc2)csc1NC(=O)c1ccc(OC)cc1	6%
C=CCOCCN1C(=O)C2C3c4ccccc4C(c4ccccc43)C2C1=O (centres undefined)	i
Cc1ccc(S(=O)(=O)NCc2ccccc2)c(C)c1NS(C)(=O)=O	i
Cc1ccccc1C(=O)Oc1ccccc1NC1=NS(=O)(=O)c2ccccc21	i

29 structures already listed, arranged by molar mass, rising:
SMILES	Mtb H37Rv
N#CCCCN1C(=O)C(=O)c2ccccc21	i
CC(=O)Nc1ccccc1NC(=O)C(F)(F)F	i
CC(C)CCNC(=O)C(=O)NCc1cccnc1	i
CCC(CC)NC(=O)c1cccc(OC)c1OC	i
Nc1ccc(C(=O)Nc2ccccc2C(=O)O)cc1	i
CC12CCC(C(=O)N3CCCCC3)(OC1=O)C2(C)C (centres undefined)	i
c1ccc2c(Nc3nncs3)c3ccccc3nc2c1	i
Cc1nc(SCCOc2ccccc2)c(C#N)c(C)c1C	9%
COc1ccc(-c2noc(COc3ccccc3)n2)cc1OC	2%
O=C(NCc1ccc(Cl)cc1Cl)Nc1cccc([N+](=O)[O-])c1	2%
Cc1ccc(C(=O)OCc2ccc(Cl)cc2)cc1NC(=O)C(C)C	i
COc1ccc(NC(=O)c2nc3nc(C)cc(C(F)F)n3n2)c(C)c1	i
COc1cc(NC(=S)NCCc2ccc(Cl)cc2)cc(OC)c1	30%
COc1ccc(CCNS(=O)(=O)c2ccc(OC)c(Cl)c2)cc1	2%
C=CCOCCN1C(=O)C2C3c4ccccc4C(c4ccccc43)C2C1=O (centres undefined)	i
Cc1ccccc1CSCCNC(=O)c1ccc(Br)cc1	15%
Cc1ccc(S(=O)(=O)NCc2ccccc2)c(C)c1NS(C)(=O)=O	i
Cc1cc(Cl)ccc1OCC(=O)N1CCN(c2ccc(Cl)cc2)CC1	i
CCOC(=O)c1c(-c2ccccc2)csc1NC(=O)c1ccc(OC)cc1	6%
O=C(CCCOc1ccc(Cl)cc1Cl)Nc1nc2c(s1)CCCC2	i
O=C(Nc1c(C(=O)Nc2ccc(F)cc2)cnn1-c1ccccc1)c1ccco1	i
Cc1ccccc1C(=O)Oc1ccccc1NC1=NS(=O)(=O)c2ccccc21	i
COc1ccc(-c2c3c(=O)n(C)c(=O)n(C)c3cn2-c2cc(C)c(C)cc2N)cc1	i
Cc1ccc(S(=O)(=O)Nc2ccc(Br)c(Cl)c2)cc1[N+](=O)[O-]	6%
COc1cc2c(cc1NC(=O)C(=O)NCCCN1CCOCC1)oc1ccccc12	i
Cc1c(NC(=O)CSCc2c(Cl)cccc2Cl)c(=O)n(-c2ccccc2)n1C	i
CCOC(=O)c1ccc(COC(=O)CN2C(=O)c3ccccc3C2=O)c(Br)c1	i
Cc1cc(Cl)ccc1NC(=O)CN1CCN(CCN=CC2=C(O)CC(C)(C)CC2=O)CC1	i
Cc1nc(SCCS(=O)(=O)Cc2ccccc2)c(C#N)c(-c2ccccc2)c1C(=O)Nc1ccccc1	i

Other records follow.
SMILES	Mtb H37Rv
COc1cccc(S(=O)(=O)NCc2ccccn2)c1	i
COc1cc(/C=C(/C#N)c2ccc(C#N)cc2)cc(Cl)c1O	i
O=S(=O)(Nc1ncccn1)c1ccccc1	i
CCOC(=O)C(Oc1ccc2c(-c3ccc(OC)cc3)cc(=O)oc2c1C)c1ccccc1 (centres undefined)	39%
Cc1nnc(SCC(=O)c2ccc(Cl)cc2)n1-c1ccc(Cl)cc1	4%
CC(=O)c1ccc(NC(=O)N2CCN(c3cccc(Cl)c3)CC2)cc1	22%
CCn1c(SCC(=O)Nc2ccc(Br)cc2)nc2ccccc2c1=O	i
COc1ccccc1CN1C(=O)C2C3C=CC(C3)C2C1=O (centres undefined)	i
CC(C)NC(=O)c1cnn(-c2ccccc2)c1NC(=O)c1ccccc1Cl	i
COc1ccc(OCC(=O)N=Nc2c(O)[nH]c3c(Br)cc(C)cc23)c(Br)c1	17µg/mL*
Cc1cc(C)n(CCCN2C(=O)c3cccc4cccc(c34)C2=O)n1	i
Cc1c(F)cccc1NC(=O)COc1ccc(Cl)cc1	2%
COC(=O)Cc1[nH]n(-c2nc3ccccc3s2)c(=O)c1C(C)=NCCc1ccccc1	i
CCc1cc(=O)oc2cc(OCc3ccccc3OC)ccc12	2%
CN(c1ccccc1C(N)=O)S(=O)(=O)c1ccccc1	i
CN(C(=O)Cn1cnc2c1c(=O)n(C)c(=O)n2C)c1ccccc1	i
C=C1CSc2nc(=O)c3c(C)c(C)sc3n21	i
O=C(Nc1ccc(S(=O)(=O)Nc2ccccc2)cc1)c1ccccc1Br	2%
Cc1cccc(NC(=S)N2CCN(c3ccccc3)CC2)c1C	i
C=CCn1c(CNC(=O)c2cccc(C)c2)nnc1SCC(=O)N1CCN(c2ccccc2)CC1	i
COC(=O)c1c(NC(=O)c2ccoc2C)sc2c1CCCCCC2	i
Oc1ccccc1-c1nc(Nc2ccccc2Cl)c2ccccc2n1	3%
CS(=O)(=O)N(Cc1ccc(C(=O)O)cc1)c1cccc(Cl)c1Cl	i
COC(=O)c1ccc(NC(=S)N2CCN(c3cccc(Cl)c3)CC2)cc1	3%
N#CCc1ccc(NC(=O)COc2ccccc2Cl)cc1	i
CCCCC(=O)Nc1ccc(C(=O)Nc2cccc(C)n2)cc1	8%
N#Cc1cccc(Oc2ccc([N+](=O)[O-])cc2)c1C#N	?
Cc1ccc(N2C(=O)C(O)(C(F)(F)F)C3=C2CC(C)(C)CC3=O)cc1C (centres undefined)	i
FC(F)(F)c1ccc(/C=N/n2c(-c3ccc(Cl)cc3)n[nH]c2=S)cc1	i
CCN1CCN(C(=O)C2CCN(S(=O)(=O)c3ccc(F)cc3)CC2)CC1	i
O=C(NNC(=S)NC1CCCCC1)c1ccccc1Cl	i
CCOCCCNC(=O)c1cccc(F)c1	i
O=C(NCCN1CCN(C(=O)c2ccc(F)cc2)CC1)C(=O)Nc1ccc(Cl)cc1	i
N#CCc1ccc(NC(=O)c2ccncc2)cc1	i
COC(=O)Nc1sc(C)c(C)c1C(=O)NCc1cccnc1	i
N#Cc1ccccc1NC(=O)COc1ccccc1[N+](=O)[O-]	2%
COc1ccc(S(=O)(=O)Nc2ccc(I)cc2)c(Cl)c1Cl	5%
O=C(COc1ccc(Cl)cc1)Nc1ccccc1C(=O)NCc1ccccc1	4%
COC(=O)NC1c2ccccc2Oc2ccc(OC)cc21 (centres undefined)	i
Cc1cccc(-n2c(N)cc(=O)nc2SCC(=O)N2c3ccccc3Sc3ccccc32)c1	i

Quoted at random: 5 compounds from above.
SMILES	Mtb H37Rv
COC(=O)Nc1sc(C)c(C)c1C(=O)NCc1cccnc1	i
O=C(NCCN1CCN(C(=O)c2ccc(F)cc2)CC1)C(=O)Nc1ccc(Cl)cc1	i
N#CCc1ccc(NC(=O)c2ccncc2)cc1	i
COc1ccc(S(=O)(=O)Nc2ccc(I)cc2)c(Cl)c1Cl	5%
Cc1cccc(-n2c(N)cc(=O)nc2SCC(=O)N2c3ccccc3Sc3ccccc32)c1	i

Continuation:
SMILES	Mtb H37Rv
Fc1ccccc1NC(=S)Nc1cc(Cl)ccc1Cl	i
O=S(=O)(Nc1ccc(-c2cn3ccccc3n2)cc1)c1ccc(-c2ccccc2)cc1	17%
O=C(COc1ccc(S(=O)(=O)NCc2ccccc2)cc1)N1CCC(Cc2ccccc2)CC1	2%
CCC1C(C#N)=C(N)SC2=C1C(=O)c1ccccc12 (centres undefined)	i
Cc1[nH]c2c(Cl)cccc2c1CCN	i
Cc1ccc(CSCCNC(=O)c2ccc(C)cc2)cc1	i
COc1cccc(C(=S)N2CCOCC2)c1OC	i
Cc1cc(Br)c2c(c1)C(O)(CC(=O)c1ccc(Cl)s1)C(=O)N2 (centres undefined)	i
CCOC(=O)Nc1ccc(S(=O)(=O)Nc2ccccc2OC)cc1	i
O=C(Cc1coc2ccc3ccccc3c12)Nc1nccs1	?
COCCNS(=O)(=O)c1cc(Br)ccc1OC	i
Cc1cccc(C)c1NC(=O)c1cccc(COc2ccc3c(c2)CCC3)c1	i
O=C(O)Cc1sc(Nc2ccc(Cl)cc2Cl)nc1-c1ccccc1	24%
C=CCN(c1ccc(C(=O)Nc2ccc(Br)c(C)c2)cc1)S(C)(=O)=O	i
O=C(CSCCO)Nc1ccccc1Cl	i
O=C(CN(c1cc(Cl)ccc1Cl)S(=O)(=O)c1ccccc1)N1CCCC1	0%
CC(=O)NC(Cc1ccccc1)C(=O)OCC(=O)c1ccc(F)cc1 (centres undefined)	i

A portion of the library (hit frequency here may not be typical).
